PV pol inh – inhibitors of poliovirus RNA polymerase binding and polymerization; % elongation, % (compound at 16.7 µg/mL); hit rate 0.66% among 150,000; P03300; poliovirus polymerase elongation, fluorescence polarization; stronger effect = lower value; in the data active = % elongation below about 90%; note: some results filed as inactive read as strong as hits
MenB inh – inhibitors of Mycobacterium tuberculosis MenB enzyme | P9WNP5 | MenB enzyme assay, absorbance read-out; some hits fall short of the stated cut | inhibition, %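 (about 12 µg/mL by stock and volumes)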 | hit rate 0.43% among 100,000 | AID 540299;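 active = mean of two replicates above 30%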;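 note: 0% = no compound and 100% = wells with inactive enzyme; the first replicate is given; strong numbers were not always called active; inactives centre near -10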
Target sequence (P9WNP5 whole entry, looked up): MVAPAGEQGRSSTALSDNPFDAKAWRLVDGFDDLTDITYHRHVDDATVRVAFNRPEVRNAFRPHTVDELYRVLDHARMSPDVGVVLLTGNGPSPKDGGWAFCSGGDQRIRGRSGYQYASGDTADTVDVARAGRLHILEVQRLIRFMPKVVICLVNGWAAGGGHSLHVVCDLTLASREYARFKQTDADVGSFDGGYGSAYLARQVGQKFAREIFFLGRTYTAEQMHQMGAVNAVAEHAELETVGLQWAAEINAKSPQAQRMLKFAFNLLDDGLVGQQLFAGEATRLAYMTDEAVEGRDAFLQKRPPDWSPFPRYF
Mtb MbtI inh – inhibitors of Mycobacterium tuberculosis siderophore enzyme MbtI. P9WFX0. inhibition, %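 (about 17 µg/mL by stock and volumes)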. hit rate 0.89% among 100,000. purified MbtI enzyme, fluorescence intensity read-out. AID 493033;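 active = above 50% in both replicates, above 80% if mildly self-fluorescent; inactive = the rest, strongly fluorescent compounds included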;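 note: 0% = mean of negative and 100% = mean of positive controls; one replicate is shown; some compounds called inactive have numbers as strong as hits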
Target sequence (P9WFX0 whole entry, looked up): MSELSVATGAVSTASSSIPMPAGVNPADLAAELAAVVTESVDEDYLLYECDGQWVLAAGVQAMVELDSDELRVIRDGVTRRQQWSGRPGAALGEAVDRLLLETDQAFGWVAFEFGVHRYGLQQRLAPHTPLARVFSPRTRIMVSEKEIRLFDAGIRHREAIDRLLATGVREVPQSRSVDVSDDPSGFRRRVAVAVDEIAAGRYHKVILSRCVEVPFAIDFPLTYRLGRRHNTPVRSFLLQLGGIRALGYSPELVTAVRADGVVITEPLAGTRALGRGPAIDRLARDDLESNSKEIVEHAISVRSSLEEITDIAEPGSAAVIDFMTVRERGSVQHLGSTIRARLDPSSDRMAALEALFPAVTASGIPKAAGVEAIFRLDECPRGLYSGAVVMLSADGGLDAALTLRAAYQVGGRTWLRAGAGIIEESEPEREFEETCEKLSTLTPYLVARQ
PV pol inh intensity – further read-out of PV pol inh, marked with its call; % elongation; measured here: total intensity read-out; formula for this scale not given here;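 total fluorescence in place of polarization; lower means less elongation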
An asterisk follows results filed as active; i = inactive; · = no result given.

Preview (five entries):
SMILES | PV pol inh | PV pol inh intensity | MenB inh | Mtb MbtI inh
CCc1cc2c3c([nH]c2cc1S(=O)(=O)NC1CCCC1)CCCC3=O | 100 | 102 | -20 | 1
CCC(=O)c1ccc(OC(=O)c2ccc(N(CC)CC)cc2)cc1 | 101 | 101 | · | 62
Cn1c(C(C#N)C(=O)c2ccc(S(=O)(=O)N3CCOCC3)cc2)nc2ccccc21 (stereo unspecified) | 104 | 118 | -23 | 9
N#CC(C#N)=C1CSc2ccccc2N1 | 100 | 103 | -96 | 2
CCCCOc1cccc2c1CCN(CC)C2=O | 97 | 99 | -11 | -4

The whole of this part, from the first entry:
SMILES | PV pol inh | PV pol inh intensity | MenB inh | Mtb MbtI inh
CCc1cc2c3c([nH]c2cc1S(=O)(=O)NC1CCCC1)CCCC3=O | 100 | 102 | -20 | 1
CCC(=O)c1ccc(OC(=O)c2ccc(N(CC)CC)cc2)cc1 | 101 | 101 | · | 62
Cn1c(C(C#N)C(=O)c2ccc(S(=O)(=O)N3CCOCC3)cc2)nc2ccccc21 (stereo unspecified) | 104 | 118 | -23 | 9
N#CC(C#N)=C1CSc2ccccc2N1 | 100 | 103 | -96 | 2
CCCCOc1cccc2c1CCN(CC)C2=O | 97 | 99 | -11 | -4
COc1ccccc1C(=O)N1CCCc2cc(C)ccc21 | 101 | 103 | -4 | -8
Cc1c(/C=C(\C#N)C(=O)Nc2ccccc2F)cc(C#N)n1C | 110 | 119 | 10 | 9
Oc1c(N=Nc2ccc3c(c2)OCO3)sc2nc3ccccc3n12 | 102 | 104 | -46 | 5
CCOC(=O)N1CCN(C(=S)Nc2ccc(Oc3ccccc3)cc2)CC1 | 101 | 103 | -17 | -7
Cc1onc(-c2ccccc2Cl)c1NC(=O)Nc1cccc(C(F)(F)F)c1 | 102 | 100 | -19 | -6
CC(CC(=O)O)CC(=O)Nc1cccc(C(=O)O)c1 (stereo unspecified) | 103 | 108 | 5 | -7
O=C(O)Cn1ncn2c(c(-n3cccc3)c3c4c(sc32)CCCC4)c1=O | 101 | 106 | -12 | 7
COc1cccc(-c2nnc(SC3CCOC3=O)n2C)c1 (stereo unspecified) | · | · | 4 | 8
O=C(CN1C(=O)c2ccccc2C1=O)Nc1ccc(N2CCOCC2)cc1 | 102 | 102 | -13 | -2
O=C(CCCN1C(=O)c2ccccc2C1=O)Nc1ccc(S(=O)(=O)NC2CCCCC2)cc1 | 105 | 106 | -11 | 5
COc1ccc(Cl)cc1-n1cnc2sc(C)c(C)c2c1=O | 103 | 106 | -22 | ·
Cc1ccccc1N(C)C(=O)Cn1cnc2onc(C)c2c1=O | 100 | 101 | -8 | 16
O=C(NCCOc1ccccc1F)c1ccccc1Nc1cccc2ccccc12 | 103 | 102 | -12 | ·
CCOC(=O)CSc1nnc(COc2cccc(C)c2)o1 | 100 | 102 | -12 | 3
CCn1c(C(=O)NC2CCCCCC2)cc2oc3ccccc3c21 | 106 | 104 | -16 | i
CC1CN(Cn2nc(-c3cccc(S(=O)(=O)N4CCOCC4)c3)oc2=S)CC(C)O1 (stereo unspecified) | 102 | 104 | -42 | 7
Cc1[nH]c2ccccc2c1C(c1ccccn1)N1CCN(CCO)CC1 (stereo unspecified) | 103 | 107 | · | 18
CC1Cc2cc(CSC(=N)N)ccc2O1 (stereo unspecified) | 102 | 103 | 0 | -27
Brc1cnc(N2CCCC2)nc1 | 101 | 102 | 0 | 4
Cc1cc(C(=O)CSc2nnc(-c3ccco3)n2C)c(C)n1C1CC1 | 101 | 88 | -19 | -3
CCc1ccc(C2Nc3ccccc3C(=O)N2c2ccc(N(C)C)cc2)cc1 (stereo unspecified) | 104 | 111 | -7 | ·
Cc1ccc(C(=O)Nc2ccc(C(=O)N3CCCCC3)cc2)o1 | 102 | 100 | -9 | 27
COc1ccccc1CNCc1ccccc1 | 107 | 112 | 4 | ·
O=C(NNc1ccccn1)Nc1ccc(Cl)cc1 | 98 | 101 | 14 | 16
O=C(Nn1c(=S)[nH]c2ccccc2c1=O)c1ccco1 | 103 | 101 | -1 | 24
O=C(COC(=O)Cc1n[nH]c(=O)c2ccccc12)NCC1CCCO1 (stereo unspecified) | 91 | 93 | -15 | -24
CC(C)Cn1c(=S)[nH]c2scc(-c3cccs3)c2c1=O | 102 | 105 | -53 | 10
CCN(CC)CCC1S(=O)(=O)C(C(=O)OC)C(c2ccc(OC)cc2)C(C(=O)OC)S1(=O)=O (stereo unspecified) | 105 | 100 | -14 | -10
CC1(n2c(=O)n(Cc3ccccc3)c3ccccc32)CSC1 | 107 | 107 | -8 | -4
Cc1cc(C(=O)CSc2nncn2C)c(C)n1-c1ncn[nH]1 | 101 | 105 | -24 | -2
CNC(=O)NC(=O)C(Sc1nnnn1C1CC1)c1ccccc1 (stereo unspecified) | 103 | 97 | -43 | 11
O=C(CSc1nc(=O)n2ccccc2n1)NCc1ccccc1 | 104 | 100 | -19 | -8
O=C(C1CC1)N1CCN(c2ncccn2)CC1 | 103 | 105 | 13 | 32
O=C(O)Cn1nnc(COc2ccccc2)n1 | 103 | 106 | 17 | 22
Cc1ccc(Nc2nc3ccccc3nc2Nc2c(C)n(C)n(-c3ccccc3)c2=O)cc1 | 100 | 111 | -6 | 12
Cc1cc(-c2csc(/N=C/N(C)C)n2)c(C)n1-c1ccc(F)cc1 | 104 | 108 | -5 | 14
CC(C)CNC(=O)C1CCCN1C(=O)Nc1ccccc1 (stereo unspecified) | 103 | 100 | -13 | -10
Cc1ccc(-c2[nH]ncc2CNCc2ccccc2)cc1C | 102 | 108 | 4 | ·
CC1N=C2c3ccccc3N=C(SCC(=O)c3ccc(O)c(O)c3)N2C1=O (stereo unspecified) | 101 | 96 | -7 | -1
O=C(Cc1n[nH]c(=O)c2ccccc12)OCCCn1c(=O)[nH]c2ccccc21 | 104 | 98 | 7 | 24
N#CCc1ccc(NC(=O)CC(CC(=O)O)c2ccccc2)cc1 (stereo unspecified) | 99 | 102 | -4 | 3
COC(=O)c1sccc1NNS(=O)(=O)c1ccccc1 | 99 | 98 | -3 | 18
CCN(CC)CC(O)Cn1c(=O)n(CC(O)CN(CC)CC)c(=O)n(CC(O)CN(CC)CC)c1=O (stereo unspecified) | 101 | 101 | -1 | -13
CC(C)(C)C1CCc2nc(N)c3c(=O)oc4ccccc4c3c2C1 (stereo unspecified) | 100 | 100 | 14 | 11
CNC(=S)N(Cc1ccc(OC)cc1OC)c1ccc(C(C)(C)C)cc1 | 104 | 108 | 2 | ·
CC(=O)NC(=S)Nc1ccc(S(=O)(=O)N2CCOCC2)cc1 | 100 | 103 | -14 | 10
CCN(CC)C(=O)Cn1cc(/C=C(\C#N)C(N)=O)c2ccccc21 | 101 | 100 | i | 5
CC(C)CSc1nc(-c2ccco2)c(C#N)c(=O)[nH]1 | 101 | 106 | -34 | -3
Cn1c(N)c(C(=O)NCc2ccccc2)c2nc3ccccc3nc21 | 101 | 102 | -50 | -148
Cc1cc(=O)[nH]c(/N=C(\N)Nc2ccccc2)n1 | 101 | 102 | 9 | 16
CN1CCN(c2ccccc2NC(=O)c2ccc(Br)o2)CC1 | 100 | 101 | -12 | 20
Cc1ccccc1Cn1c(-c2cncs2)nc2ccccc21 | 104 | 107 | -2 | ·
CSc1ccc(-c2nnc(NC(=O)/C=C/c3cccs3)o2)cc1 | 106 | 109 | -73 | -3
CSc1ccccc1NC1=NS(=O)(=O)c2ccccc21 | 101 | 106 | -15 | -3
COc1ccccc1C(=O)N1CCNCC1 | 102 | 102 | -3 | ·

Next structures:
SMILES | PV pol inh | PV pol inh intensity | MenB inh | Mtb MbtI inh
CCc1cc(=O)oc2cc3occ(C(C)(C)C)c3cc12 | 101 | 103 | -25 | 0
Cc1ccc(Cl)cc1NCN1C(=O)/C(=C/c2ccc(Br)cc2)NC1=S | 109 | 113 | -164 | ·
Cc1csc(=NCC(=O)NCc2ccccc2)n1CC(=O)NCc1ccccc1 | 102 | 105 | -12 | 11
Cc1ccn2c(-c3nnco3)c(C)nc2c1 | 102 | 103 | -30 | -11
O=C(COC(=O)c1ccc(Cl)nc1)NCc1ccccc1Cl | 103 | 109 | 2 | -7
CCn1cc2nc(SCC(=O)NC3CCCCC3)n(Cc3ccc(OC)cc3)c(=O)c2n1 | 101 | 103 | -3 | -25
CN(C(=O)COc1ccccc1)C1CCS(=O)(=O)C1 (stereo unspecified) | 103 | 106 | -230 | 1
CCCN(CCC)c1sc(S(C)(=O)=O)nc1S(=O)(=O)c1ccc(C)cc1 | 103 | 102 | -13 | -5
CC(=O)N1CCc2cc(S(=O)(=O)NCCC(=O)N3CCc4ccccc43)ccc21 | 99 | 88 | -21 | -8
CCOC(=O)c1[nH]c2ccc(OC)cc2c1N=C(C)N(C)C | 100 | 102 | 11 | 5
CC1CCN(Cc2ccc(NC(=O)Nc3cccs3)cc2)CC1 | 101 | 106 | 9 | 26
CN(C)c1ccc(/C=C(\NC(=O)c2ccccc2)C(=O)NCc2ccco2)cc1 | 103 | 108 | · | -2
CC1=CCC2(CO)COC(c3ccccc3O)C1C2 (stereo unspecified) | 103 | 105 | -36 | -4
C=CCNC(=O)c1ccccc1OCc1ccccc1 | 101 | 102 | -15 | -10
CN1CCN(C(=O)C2=C(N)C(C(=O)Nc3ccccc3Br)SC2=NCc2ccccc2)CC1 (stereo unspecified) | 96 | 101 | -13 | 5
Cc1nn(CCCC(=O)NC2CCCc3ccccc32)c(=O)c2cc3sccc3n12 (stereo unspecified) | 101 | 103 | -3 | -1
CC(=O)NC1=NC(=O)/C(=C\c2ccc(Cl)cc2)S1 | 107 | 116 | -1 | ·
O=c1[nH]c2ccccc2n1CN1CCc2ccccc2C1 | 102 | 99 | 18 | 4
COC(=O)c1cnn(C(=O)c2ccccc2Br)c1N | 102 | 99 | -13 | -6
Cn1c(=O)n(C)c2cc(CN3C(=O)c4ccccc4C3=O)ccc21 | 103 | 102 | -8 | ·
CC(=O)O/N=C(/N)c1cnn2c(C(F)(F)F)cc(C(F)(F)F)nc12 | 102 | 101 | -13 | 5
O=C(NC12CC3CC(CC(C3)C1)C2)C1CCCN1S(=O)(=O)c1ccccc1 (stereo unspecified) | 106 | 112 | -15 | ·
CCCN1CCN(c2ccc(S(C)(=O)=O)cc2S(C)(=O)=O)CC1 | 106 | 102 | 15 | 3
CCN1C(=O)/C(=C2\SC(=S)N(NC(=O)c3ccccc3)C2=O)c2ccccc21 | 101 | 103 | -17 | ·
Nc1[nH]nc(Nc2ccccc2)c1S(=O)(=O)c1ccccc1 | 102 | 103 | -7 | 0
N#CCCSc1ccc(F)cc1 | 99 | 101 | -9 | 25
CCOC(=O)c1cc(C#N)c(SCc2ccc(C#N)cc2)nc1C | 104 | 112 | -6 | -8
CC(NC(=O)CSc1nc2c(c(=O)n1C)C1=C(CCCC1)C2)c1ccccc1 (stereo unspecified) | 105 | 108 | -6 | ·
Cc1cc(=O)[nH]c(SCC(=O)Nc2ccc(N3CCOCC3)c(Cl)c2)n1 | 101 | 99 | 3 | -2
CCOC(=O)COc1ccc2c(c1)C(=O)CC(C)(c1cccnc1)O2 (stereo unspecified) | 100 | 102 | -6 | i

Record cards, from the list above.
Results for Nc1[nH]nc(Nc2ccccc2)c1S(=O)(=O)c1ccccc1 → PV pol inh: 102; PV pol inh intensity: 103; MenB inh: -7; Mtb MbtI inh: 0
Results for CC(=O)O/N=C(/N)c1cnn2c(C(F)(F)F)cc(C(F)(F)F)nc12 → PV pol inh: 102; PV pol inh intensity: 101; MenB inh: -13; Mtb MbtI inh: 5

Later entries
SMILES | PV pol inh | PV pol inh intensity | MenB inh | Mtb MbtI inh
Cc1nc(NS(=O)(=O)c2ccccc2)sc1NC(=O)OCCOc1nc(N(C)C)nc(N(C)C)n1 | 102 | 101 | 0 | 18
Cc1ccc2onc(CNC(=O)N3CCN(C)CC3)c2c1 | 104 | 98 | -23 | 6
COc1ccc(-n2ncc3c(NCCc4ccccc4)ncnc32)cc1 | 103 | 103 | -52 | 5
O=C(O)C(Cc1ccccc1)P(=O)(O)CN1CCOCC1 (stereo unspecified) | 102 | 99 | 15 | -2
CCOC(=O)C1=C(O)c2ccccc2C1=O | 101 | 102 | -22 | 1
NNc1nc2ccccc2o1 | 103 | 103 | · | 6
O=C(NCc1ccccc1)c1cc(-c2ccco2)on1 | 104 | 106 | -9 | -17
CCCn1c(N)c(C(=O)COC(=O)c2cc(-c3ccc(C)o3)nc3ccccc23)c(=O)[nH]c1=O | 106 | 108 | -7 | -64
O=C(NCCc1ccccc1)c1ccc2c(c1)sc1nc(-c3ccccc3)cn12 | 101 | 108 | 3 | -4
O=C1c2ccc(-c3nc4ccc(Br)cc4c(=O)o3)cc2C(=O)N1C1CCCCC1 | 104 | 93 | -13 | ·
N=C(N=C(N)N)N1CCCc2ccccc21 | 103 | 102 | -7 | -3
CN(N)c1cc(=O)n(C)c(=O)[nH]1 | 111 | 61 | 17 | 6
COC(OC)c1ccc(C#N)c(SCC(=O)c2ccccc2)n1 | 108 | 125 | -64 | 3
O=c1cc(-c2cccs2)oc2ccc(Cl)cc12 | 100 | 99 | · | -9
CC(=O)NS(=O)(=O)c1ccc(NC(=O)c2ccccc2C(=O)O)cc1 | 101 | 102 | -12 | 3

Bioassay records: PubChem, ICCB-Longwood Screening Facility, Harvard Medical School
